# High-throughput results from PubChem BioAssay.
# DUX4 inh = blocks DUX4-driven transcriptional activation. 293T-iDUX4 ZSCAN4-Gaussia luciferase reporter, 24 h; stronger effect = lower value. activity change, negative = inhibition, % (test concentration not listed). 37,000 tested, 0.8% active;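 active = -10% or lower and over 25 points stronger than a control reporter; inconclusive = -10% or lower with a smaller gap; inactive = above -10%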;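 also: 0% = median of neutral control wells and -100% = median of positive control wells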
# DUX4 inh difference = also measured in DUX4 inh; calls as there; Gaussia minus Italica difference, %; measured here: selective DUX4 reporter inhibition;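 worked out from the two reporters; negative = selective loss of the DUX4 reporter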
# DUX4 inh control = recorded beside DUX4 inh, whose call it bears; activity change, negative = inhibition, %; measured here: Italica tet-on control reporter;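 0 = neutral control and -100 = positive control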
# Active calls of the source: *; ? = inconclusive; nt = no result given. This is a subset. The share of hits here may be higher or lower than overall.
1) C[C@@H]1CC=CCCNC(=O)[C@@H](C)N(C)C(=O)c2ccccc2O1 (mixture of isomers)
2) C[C@H]1CN([C@@H](C)CO)S(=O)(=O)c2ccc(C3=CCCCC3)cc2O[C@H]1CN(C)C(=O)C1CCCCC1
3) C[C@H]1CN([C@@H](C)CO)C(=O)CCCn2cc(nn2)CO[C@H]1CN(C)C(=O)Nc1ccc(F)cc1
4) CCC(=O)N1CC2(C1)CN(C(=O)Cc1ccccc1)[C@H](CO)c1c2c2ccc(OC)cc2n1C
5) Cc1ccccc1S(=O)(=O)N1CC(=O)N2[C@H](CO)[C@@H](c3ccc(C#CCN(C)C)cc3)[C@H]2C1
assay / compound | 1 | 2 | 3 | 4 | 5
DUX4 inh | -1 | -1 | -6 | 10 | 13
DUX4 inh difference | -5 | 0 | 0 | 1 | 9
DUX4 inh control | 4.1 | -1.3 | -5.3 | 8.4 | 4.0

6) COc1cccc(-c2ccc3c(c2)[C@@H]2[C@@H](CCN2C(=O)c2ccc4c(c2)OCO4)[C@H](CO)N3C)c1
7) O=C(NCc1ccccn1)[C@@H]1[C@@H](CO)[C@@H]2Cn3c(cccc3=O)[C@H]1N2CC1CCCC1
8) CC(C)NC(=O)N(C)C[C@@H]1Oc2ccc(NC(=O)Cc3ccccc3)cc2CC(=O)N([C@@H](C)CO)C[C@@H]1C
9) O=C(Nc1ccc(F)cc1)N1CC(=O)N2[C@H](C1)[C@@H](c1ccc(Br)cc1)[C@@H]2CO
10) COc1cccc(NC(=O)C[C@H]2CC[C@@H]3[C@@H](COc4ccc(NC(=O)c5ccccc5F)cc4C(=O)N3C)O2)c1
assay / compound | 6 | 7 | 8 | 9 | 10
DUX4 inh | ? | 3 | -1 | 6 | 0
DUX4 inh difference | nt | 6 | 2 | 7 | -1
DUX4 inh control | nt | -3.1 | -3.2 | -1.0 | 1.0

11) COc1cccc(C(=O)Nc2ccc3c(c2)OC[C@H](C)N(C)C[C@@H](C)[C@H](OC)CN(C)C3=O)c1
12) O=C(C[C@H]1CC[C@@H](NC(=O)C2CCOCC2)[C@@H](CO)O1)NCC1CCCCC1
13) C[C@H](CO)N1C[C@H](C)[C@H](CN(C)CC2CC2)Oc2ccc(NC(=O)CCC(F)(F)F)cc2CC1=O
14) Cc1cccc(-c2ccc([C@@H]3[C@@H](CO)N4CCCCN(CCC(F)(F)F)C[C@H]34)cc2)c1
15) C[C@@H]1CN([C@@H](C)CO)S(=O)(=O)c2ccc(C#Cc3cccnc3)cc2O[C@H]1CN(C)C(=O)Nc1ccc2c(c1)OCO2
assay / compound | 11 | 12 | 13 | 14 | 15
DUX4 inh | 6 | 7 | -1 | 14 | 0
DUX4 inh difference | 4 | 4 | 1 | -8 | 3
DUX4 inh control | 1.5 | 2.8 | -1.8 | 22 | -3.6

16) COc1cccc(NC(=O)N2CC3(C2)[C@H](c2ccccc2)[C@@H](CO)N3C(=O)C2CCC2)c1
17) CS(=O)(=O)Nc1ccc2c(c1)[C@@H]1C[C@@H](CC(=O)NCc3ccc(Oc4ccccc4)cc3)O[C@H](CO)[C@@H]1O2
18) O=C(c1ccc(F)cc1)N1CC(=O)N2[C@H](C1)[C@@H](c1ccc(C#CCC3CCCC3)cc1)[C@@H]2CO
19) CN1CCCCN2[C@H](CO)[C@H](c3ccc(-c4ccc(F)cc4)cc3)[C@@H]2C1
20) CNC(=O)C[C@@H]1CC[C@@H]2[C@@H](COc3ccc(NC(=O)Nc4cccc(C)c4)cc3C(=O)N2C)O1
assay / compound | 16 | 17 | 18 | 19 | 20
DUX4 inh | 13 | ? | ? | 5 | -4
DUX4 inh difference | 14 | nt | nt | 7 | -2
DUX4 inh control | -1.3 | nt | nt | -1.6 | -2.2

21) O=C(C1CCOCC1)N1C[C@H]2[C@@H](c3ccccc31)[C@H](CO)N2Cc1ccccc1
22) C[C@H]1CN([C@@H](C)CO)C(=O)c2ccccc2-c2ccccc2CO[C@@H]1CN(C)C(=O)C1CC1
23) CCC(=O)N1CC(=O)N2[C@H](CO)[C@@H](c3ccc(-c4ccccc4C)cc3)[C@H]2C1
24) O=C(O)C[C@H]1C=C[C@H](NC(=O)Nc2cc(F)ccc2F)[C@H](CO)O1
25) OC[C@@H]1[C@@H](c2ccc(C#CC3CCCC3)cc2)[C@H]2CN(CCC(F)(F)F)CCCCN12
assay / compound | 21 | 22 | 23 | 24 | 25
DUX4 inh | 1 | -1 | 11 | -4 | ?
DUX4 inh difference | -5 | 4 | 3 | 0 | nt
DUX4 inh control | 5.7 | -5.7 | 8.1 | -4.5 | nt

26) C[C@H]1CN([C@@H](C)CO)C(=O)c2cc(-c3ccncc3)cnc2O[C@@H]1CN(C)C(=O)CN1CCOCC1
27) O=C(C[C@@H]1CC[C@H]2[C@@H](COC[C@H](O)CN2C(=O)c2ccccc2F)O1)N1CCOCC1
28) CCC(=O)N1C[C@@H](O)COC[C@H]2O[C@H](CC(=O)NCc3ccc(Oc4ccccc4)cc3)CC[C@@H]21
29) CCC(=O)N1[C@H](CN(CC)C(=O)c2ccc(F)cc2)[C@H](c2ccccc2)[C@@H]1CO
30) COc1ccc2c3c(n(C)c2c1)[C@@H](CO)N(S(C)(=O)=O)CC31CCN(Cc2cccnc2)CC1
assay / compound | 26 | 27 | 28 | 29 | 30
DUX4 inh | -4 | 0 | 1 | 1 | -3
DUX4 inh difference | -2 | 0 | -5 | -4 | -3
DUX4 inh control | -2.2 | 0.4 | 5.8 | 5.5 | 0.5

31) CCCNC(=O)N1[C@H](C#N)[C@@H](c2ccc(-c3ccccc3F)cc2)[C@@H]1CO
32) COc1ccccc1-c1ccc2n(c1=O)C[C@H]1[C@H](CO)[C@@H](C(=O)N(C)C)N(C(=O)c3cccnc3)[C@@H]21
33) O=C(C[C@H]1C[C@H]2c3cc(NC(=O)c4ccc5c(c4)OCO5)ccc3O[C@H]2[C@H](CO)O1)NC1CCCCC1
34) O=C(C[C@H]1C[C@@H]2c3cc(NC(=O)c4ccc5c(c4)OCO5)ccc3O[C@@H]2[C@@H](CO)O1)NCc1ccccn1
35) C[C@H](CO)N1C[C@H](C)[C@@H](CN(C)S(=O)(=O)c2ccc([N+](=O)[O-])cc2)OCc2ccccc2-c2c(n(C)c3ccccc23)C1=O
assay / compound | 31 | 32 | 33 | 34 | 35
DUX4 inh | -4 | -2 | 1 | ? | ?
DUX4 inh difference | -2 | -11 | -3 | nt | nt
DUX4 inh control | -2.6 | 8.4 | 3.8 | nt | nt

36) CC(C)(O)C#Cc1ccc([C@@H]2[C@H](CO)N3CCCCN(S(C)(=O)=O)C[C@@H]23)cc1
37) CCN1[C@@H]2Cn3c(ccc(C4=CCCCC4)c3=O)[C@H]1[C@@H](C(=O)N1CCCCC1)[C@@H]2CO
38) CCCC#Cc1ccc([C@H]2[C@H]3CN(S(=O)(=O)Cc4ccccc4)CCCCN3[C@H]2CO)cc1
39) CC(C)CC#Cc1ccc([C@H]2[C@@H](CO)N3C(=O)CN(C(=O)Cc4cccnc4)C[C@H]23)cc1
40) COc1ccccc1NC(=O)N1C[C@@H](O)COC[C@@H]2O[C@H](CC(=O)N3CCC(Cc4ccccc4)CC3)CC[C@H]21
assay / compound | 36 | 37 | 38 | 39 | 40
DUX4 inh | 19 | -4 | 11 | 11 | ?
DUX4 inh difference | 10 | -7 | 10 | -3 | nt
DUX4 inh control | 9.1 | 3.0 | 1.1 | 14 | nt

41) C[C@@H]1CN([C@@H](C)CO)C(=O)c2ccccc2-c2ccccc2CO[C@H]1CN(C)C(=O)Nc1ccc(-c2ccccc2)cc1
42) N#Cc1ccc(-c2ccc3c(c2)[C@@H]2[C@@H](CCN2C(=O)c2ccc4c(c2)OCO4)[C@H](CO)N3)cc1
43) Cc1noc(C)c1NC(=O)Nc1ccc2c(c1)C(=O)N([C@@H](C)CO)C[C@@H](C)[C@H](CN(C)S(=O)(=O)c1cn(C)cn1)OCCCC[C@H](C)O2
44) COc1ccccc1NC(=O)N[C@@H]1C=C[C@@H](CC(=O)NCc2ccc(Cl)c(Cl)c2)O[C@H]1CO
45) C[C@H]1CN([C@@H](C)CO)C(=O)c2cc(NC(=O)Cc3ccccc3)ccc2O[C@@H]1CN(C)C(=O)NC1CCCCC1
assay / compound | 41 | 42 | 43 | 44 | 45
DUX4 inh | 2 | ? | 1 | -8 | 3
DUX4 inh difference | -4 | nt | -2 | 8 | 2
DUX4 inh control | 6.2 | nt | 3.0 | -16 | 0.9

46) COc1ccc(-c2cn(CC[C@@H]3CC[C@@H](NC(=O)c4cnccn4)[C@@H](CO)O3)nn2)cc1
47) CNC(=O)C[C@@H]1CC[C@H]2[C@H](COc3ccc(NC(=O)NC(C)C)cc3C(=O)N2C)O1
48) CCCNC(=O)N1[C@H](C#N)[C@H](c2ccccc2-c2cccc(C)c2)[C@@H]1CO
49) CCC(=O)N1C[C@@H](O)COC[C@H]2O[C@H](CC(=O)NCc3cc(F)cc(F)c3)CC[C@@H]21
50) CCC(=O)N1[C@@H](CO)[C@@H](c2ccccc2)C12CN(C(=O)c1ccc3c(c1)OCO3)C2
assay / compound | 46 | 47 | 48 | 49 | 50
DUX4 inh | 1 | -4 | -5 | 6 | -1
DUX4 inh difference | 4 | -2 | 7 | 9 | -7
DUX4 inh control | -2.9 | -1.1 | -12 | -3.5 | 5.9

51) Cc1ccccc1S(=O)(=O)N1CCCCN2[C@@H](CO)[C@H](c3ccc(-c4cccc(F)c4)cc3)[C@@H]2C1
52) O=C(C[C@@H]1CC[C@@H]2[C@H](COC[C@H](O)CN2C(=O)c2ccc(F)cc2)O1)Nc1ccc(-c2ccccc2)cc1
53) CC(C)NC(=O)N1CC2(C1)[C@H](c1ccccc1)[C@H](CO)N2Cc1cncnc1
54) COc1ccc(C(=O)Nc2ccc3c(c2)C(=O)N(C)C[C@H](OC)[C@H](C)CN(C)[C@@H](C)CO3)cc1
55) O=C(C[C@H]1CC[C@@H]2[C@H](COC[C@@H](O)CN2C(=O)c2cccnc2)O1)Nc1ccc(-c2ccccc2)cc1
assay / compound | 51 | 52 | 53 | 54 | 55
DUX4 inh | -47* | -4 | 8 | -3 | -2
DUX4 inh difference | -26* | -5 | 5 | -4 | 9
DUX4 inh control | -21* | 1.1 | 2.7 | 0.8 | -11

56) COc1cccc(C#Cc2ccc3c(c2)[C@H]2[C@H](CCN2C(=O)c2ccccc2F)[C@H](CO)N3)c1
57) C[C@@H]1CN([C@@H](C)CO)C(=O)c2ccccc2-c2ccccc2CO[C@H]1CN(C)S(=O)(=O)c1ccsc1
58) COc1cccc(-c2ccc3c(c2)[C@H]2[C@H](CCN2S(=O)(=O)c2cn(C)cn2)[C@H](CO)N3)c1
59) Cc1cccc(S(=O)(=O)N2C[C@@H](O)COC[C@@H]3O[C@H](CC(=O)Nc4ccccc4)CC[C@H]32)c1
60) CCN(C[C@@H]1[C@@H](c2ccccc2)[C@H](CO)N1C(=O)C1CC1)C(=O)NC1CCCC1
assay / compound | 56 | 57 | 58 | 59 | 60
DUX4 inh | -28* | 16 | 13 | -1 | 2
DUX4 inh difference | -26* | 7 | 10 | 3 | 2
DUX4 inh control | -2.1* | 8.5 | 2.5 | -4.3 | 0.7

61) CN1CCN(C(=O)C[C@H]2CC[C@H]3[C@@H](COC[C@H](O)CN3C(=O)c3ccccc3F)O2)CC1
62) O=C(C[C@@H]1C=C[C@@H](NC(=O)Nc2ccc3c(c2)OCO3)[C@@H](CO)O1)NCCCN1CCOCC1
63) COCC(=O)N1[C@H](C#N)[C@@H](c2ccc(-c3cccc(F)c3)cc2)[C@@H]1CO
64) O=C(NC1CCC1)[C@@H]1[C@@H](CO)[C@@H]2Cn3c(ccc(-c4ccccc4)c3=O)[C@H]1N2Cc1cocn1
65) COc1ccccc1-c1ccc([C@H]2[C@@H](C#N)N(C(=O)CN(C)C)[C@H]2CO)cc1
assay / compound | 61 | 62 | 63 | 64 | 65
DUX4 inh | 4 | 7 | 1 | 2 | 2
DUX4 inh difference | -1 | 12 | 1 | 5 | 0
DUX4 inh control | 5.4 | -4.8 | -0.5 | -2.6 | 1.9

# Complete entries from above:
# O=C(NC1CCC1)[C@@H]1[C@@H](CO)[C@@H]2Cn3c(ccc(-c4ccccc4)c3=O)[C@H]1N2Cc1cocn1 is listed as DUX4 inh: 2; DUX4 inh difference: 5; DUX4 inh control: -2.6
# COc1ccccc1-c1ccc([C@H]2[C@@H](C#N)N(C(=O)CN(C)C)[C@H]2CO)cc1 is listed as DUX4 inh: 2; DUX4 inh difference: 0; DUX4 inh control: 1.9

# 5 successive entries from above:
60) CCN(C[C@@H]1[C@@H](c2ccccc2)[C@H](CO)N1C(=O)C1CC1)C(=O)NC1CCCC1
61) CN1CCN(C(=O)C[C@H]2CC[C@H]3[C@@H](COC[C@H](O)CN3C(=O)c3ccccc3F)O2)CC1
62) O=C(C[C@@H]1C=C[C@@H](NC(=O)Nc2ccc3c(c2)OCO3)[C@@H](CO)O1)NCCCN1CCOCC1
63) COCC(=O)N1[C@H](C#N)[C@@H](c2ccc(-c3cccc(F)c3)cc2)[C@@H]1CO
64) O=C(NC1CCC1)[C@@H]1[C@@H](CO)[C@@H]2Cn3c(ccc(-c4ccccc4)c3=O)[C@H]1N2Cc1cocn1
assay / compound | 60 | 61 | 62 | 63 | 64
DUX4 inh | 2 | 4 | 7 | 1 | 2
DUX4 inh difference | 2 | -1 | 12 | 1 | 5
DUX4 inh control | 0.7 | 5.4 | -4.8 | -0.5 | -2.6
